Calb FLC: C. albicans growth inhibition with fluconazole, primary screen, CaCi-2 strain, Alamar Blue fluorescence. C. albicans CaCi-2 (fluconazole-resistant clinical isolate) + fluconazole, 48 h. growth inhibition, % (test concentration not listed). 300,000 tested, 0.57% active. AID 1979, 2009;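 active = most replicates above 75%; inconclusive = exactly half above 75%; inactive = most below 75%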;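 also: all wells also contain fluconazole at 8 µg/ml as a sub-toxic cotreatment; 0% = median of DMSO wells and 100% = median of geldanamycin control wells; wells of about 8 µL received 7.5 nL stock; the first replicate is given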
LANA-H2A inh: blockers of LANA interaction with H2A/H2B – biochemical, FP readout, HTS, primary screen. Protein LANA1 (Human herpesvirus 8 type P (isolate GK18)), Q9QR71. cell-free LANA-H2A/H2B peptide, fluorescence polarization. inhibition, % (concentration not given with the values). 320,000 tested, 0.6% active. AID 2629, 2010; in the data active = inhibition mostly above about 10%, no sharp cut-off; inactive = mostly below about 6.7%;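 also: stock transfer was 7.5 nL into about 10 µL; 0% = median of vehicle wells and 100% = median of positive control wells; one replicate is shown; the record names a cut of 25% in any replicate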
Vif A3G: inhibitors of Vif binding to APOBEC3G peptide, primary screen, biochemical, TR-FRET, GST-Vif 1-94, biotin-A3G peptide, dose response retest (AID 1117319); TR-FRET GST-Vif / biotin-A3G peptide binding; higher % means a stronger effect; test concentration not given here; strong numbers were not always called active; inhibition, %; hits with a dose series show IC50 in µM; 260,000 tested, 0.57% active;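 active = above the screen mean plus three standard deviations and confirmed in dose response; inconclusive = results disagree or hit not tested in dose response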;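 also: Vif residues 1-94 fused to GST binding biotinylated APOBEC3G peptide 110-148; 0% = full assay without inhibitor and 100% = GST in place of GST-Vif; retest series ran down from 100 µM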
RanGTP-Impb inh: inhibitors of RanGTP-importin-beta interaction, primary screen, biochemical, FRET, CFP-Ran, YFP-importin-beta, homogeneous; 300,000 tested, 1.1% active; cell-free CFP-Ran/YFP-importin-beta FRET ratio; inhibition, % (no concentration beside the values); AID 2216, 2009;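 active = most replicates above 15%; inconclusive = exactly half above 15%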;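 also: 0% = DMSO wells and 100% = Ran loaded with GDP instead of GTP; wells of about 40 µL received 100 nL stock; the first replicate is given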
Beta2AR agonist: beta2AR agonists driving receptor internalization, primary screen, cell-based, FAP fluorogen, flow cytometry; Beta-2 adrenergic receptor (Homo sapiens), P07550; Am2.2-beta2AR cells; reference of the scale not given here; response, % (test concentration not listed); 340,000 tested, 0.43% active;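 active = response above a set limit, near 3 SD of response in nonfluorescent compounds, cut at about 42% in these data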;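 also: stock transfer was 100 nL into about 11 µL; a reference agonist was the positive control; negative values mostly stem from fluorescent compounds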
Target sequence (P07550 whole entry, looked up): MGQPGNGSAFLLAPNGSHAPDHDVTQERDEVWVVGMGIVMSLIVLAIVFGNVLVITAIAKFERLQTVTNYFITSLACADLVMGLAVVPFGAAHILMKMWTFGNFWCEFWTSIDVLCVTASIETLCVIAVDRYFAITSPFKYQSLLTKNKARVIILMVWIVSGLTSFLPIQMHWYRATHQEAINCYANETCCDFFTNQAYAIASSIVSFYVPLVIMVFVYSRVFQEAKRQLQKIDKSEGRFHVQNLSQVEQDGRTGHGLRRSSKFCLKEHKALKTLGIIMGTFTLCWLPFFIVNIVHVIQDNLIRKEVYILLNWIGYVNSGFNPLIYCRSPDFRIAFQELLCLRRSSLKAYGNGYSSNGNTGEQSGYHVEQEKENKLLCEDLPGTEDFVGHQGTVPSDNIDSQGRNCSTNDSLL
ALR inh: inhibitors of human ALR sulfhydryl oxidase, primary screen, biochemical, H2O2 detection, HRP-luminol luminescence, single point; purified ALR, DTT oxidation; inhibition, % (test concentration not listed); 290,000 tested, 3.8% active;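 active = mean and each replicate at 75% or more; inconclusive = only one of the two met; inactive = neither met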;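 also: stock transfer was 7.5 nL into about 7.5 µL; 0% = neutral wells and 100% = wells with inactivated enzyme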
Target sequence (P55789 whole entry, looked up): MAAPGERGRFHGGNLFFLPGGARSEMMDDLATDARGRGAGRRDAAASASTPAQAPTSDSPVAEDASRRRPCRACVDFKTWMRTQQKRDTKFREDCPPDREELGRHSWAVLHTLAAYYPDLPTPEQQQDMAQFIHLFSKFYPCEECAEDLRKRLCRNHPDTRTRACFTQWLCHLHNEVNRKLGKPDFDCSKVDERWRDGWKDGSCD
HNF4A DNA FP: change in binding of human HNF4A to DNA, primary screen, biochemical, fluorescence polarization, FITC-DNA. Hepatocyte nuclear factor 4-alpha (Homo sapiens), P41235. 1 h. activity change, % at 10 µM. 360,000 tested, 0.3% active. AID 1224865, 2016; in the data active = activity change above about 30%, passing the limit was not always enough;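 also: controls were the assay level and a saturating level of protein; the project sought stronger binding though the title names inhibitors; some compounds called inactive have numbers as strong as hits; positive values seem to mean higher polarization but the record does not say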
Target sequence (P41235 whole entry, looked up): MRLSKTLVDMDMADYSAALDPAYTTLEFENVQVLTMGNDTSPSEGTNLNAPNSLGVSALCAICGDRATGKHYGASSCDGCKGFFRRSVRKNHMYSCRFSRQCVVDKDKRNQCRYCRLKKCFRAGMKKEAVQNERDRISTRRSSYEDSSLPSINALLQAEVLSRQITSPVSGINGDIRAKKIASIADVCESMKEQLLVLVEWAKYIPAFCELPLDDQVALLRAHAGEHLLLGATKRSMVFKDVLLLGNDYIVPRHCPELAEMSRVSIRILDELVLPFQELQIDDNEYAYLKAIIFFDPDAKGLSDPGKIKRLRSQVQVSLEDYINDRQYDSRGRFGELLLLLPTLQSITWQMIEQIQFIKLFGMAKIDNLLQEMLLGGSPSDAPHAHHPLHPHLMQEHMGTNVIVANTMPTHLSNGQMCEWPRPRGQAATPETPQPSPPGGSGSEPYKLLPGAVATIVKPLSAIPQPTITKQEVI
Numbers without * were called inactive; ? = inconclusive; nt = not tested or not shown. The order is random (roughly 6.3% active in at least one column).

SMILES	Calb FLC	LANA-H2A inh	Vif A3G	RanGTP-Impb inh	Beta2AR agonist	ALR inh	HNF4A DNA FP
Cn1c(CNC(=O)c2ccccc2)nnc1SCC(=O)Nc1nccs1	-1.1	1.9	1.1%	-0.4	-2.8	-14.1	-1.4
C/C(=N\NC(=O)C(O)c1ccccc1)c1ccc(Cl)cc1 (centres undefined)	12.8	6.4	nt	?	-2.9	-4.4	-2.5
CCC(=O)N1CCc2nc(-c3ccccc3)sc2C1	-5.0	0.4	-8.2%	5.5	2.1	-24.7	0.6
Cc1n[nH]c(=S)n1Cc1ccccc1	0.9	-6.8	-1.0%	3.0	-0.9	34.9	3.9
CCOC(=O)N1CCN(C(=O)/C(=C/c2ccccc2OC)NC(=O)c2ccccc2)CC1	-4.9	-2.5	5.0%	1.2	-0.4	-1.1	1.8
O=C(O)c1ccc(Nc2nc3ccc(Cl)cc3[nH]2)cc1	12.0	-3.0	nt	-0.2	0.2	47.2	-1.1
COc1ccccc1NS(=O)(=O)c1ccc2c(c1)NC(=O)C(C)S2 (centres undefined)	-25.6	-4.1	7.0%	-2.0	13.7	-10.4	-1.2
CC1CN=C(N(C(=O)Nc2ccccc2)c2ccc(F)cc2)S1 (centres undefined)	0.5	-3.0	-2.7%	8.3	-8.4	10.2	4.5
CC(Sc1nnc(C2CC2)n1C1CC1)C(=O)c1ccc(Br)cc1 (centres undefined)	nt	nt	1.0%	nt	0.1	nt	-3.0
CCOC(=O)C1CCCN(C(=O)Nc2ccccc2)C1 (centres undefined)	-1.0	2.1	3.9%	-5.7	3.8	nt	-0.2
COc1cc2c(cc1OC)CN(c1ncccc1[N+](=O)[O-])CC2	-7.3	0.4	nt	-3.8	-3.2	-6.9	2.3
O=C(NC1CCN(Cc2ccccc2)CC1)c1ccccc1OCc1ccccc1Cl	-0.1	-5.4	nt	5.5	-1.2	-11.8	0.7
Cc1ccc(SCCC(=O)NC2CC2)cc1	23.5	-5.2	5.0%	0.4	-5.3	-13.3	-4.2
O=C(Nc1cc(C(F)(F)F)ccc1-n1cncn1)C1CC1	-4.4	14.6	-3.9%	2.3	-8.6	-2.9	-3.1
CC1(C)CC(=O)N(c2cccc(C(F)(F)F)c2)C(=O)C1	-3.9	-1.7	-4.3%	?	10.2	-8.6	-6.2
COc1ccccc1C1(CCNC(C)c2cccs2)CCOC(C(C)C)C1 (centres undefined)	-15.1	-0.5	13.9%	?	-2.8	-3.2	1.9
Cc1ccc(S(=O)(=O)NCC(=O)Nc2cccc([N+](=O)[O-])c2)cc1	-11.3	1.9	7.6%	3.1	-8.6	nt	-0.7
Cc1ccc(C)c(Cc2c(C)nc3c(C(=O)NCc4ccc5c(c4)OCO5)cnn3c2C)c1	2.9	-13.4	7.6%	2.8	nt	-0.5	nt
COc1ccc(/C=C/C(=O)c2ccc(OC)cc2OC)c(OC)c1	12.2	1.9	?	4.1	-0.8	4.1	1.2
COc1cc(Cl)ccc1S(=O)(=O)n1nc(C)cc1C	12.3	-0.7	5.8%	-1.7	-10.2	-1.4	-3.2
C[C@H](CO)N1C[C@H](C)[C@H](CN(C)S(=O)(=O)c2cn(C)cn2)Oc2ccc(NC(=O)Nc3ccc(C(F)(F)F)cc3)cc2CC1=O	nt	2.7	nt	nt	1.6	10.4	-3.9
Cc1cccc(C)c1-n1c(C)nn(CCOc2ccccc2)c1=O	-0.9	-2.0	-0.8%	1.7	-0.7	-8.2	2.8
COc1ccc(C(=O)Nc2cc(C)nn2-c2cccc(F)c2)cc1	-2.3	2.2	-4.9%	2.5	-3.6	1.5	1.0
CCC(=O)NNC(=O)c1c(O)c2ccccc2[nH]c1=O	12.4	4.3	4.5%	-2.3	-0.3	-4.2	3.0
COc1ccc(C2=NN(C(=O)CCC(=O)O)C(c3ccccc3F)C2)cc1 (centres undefined)	-2.7	-2.6	nt	-1.6	2.8	-5.2	1.0
Fc1ccccc1N=C1NN=C(c2ccccc2)CS1	0.0	3.6	6.5%	-2.2	2.5	-9.5	-2.0
O=c1c2c(nc3c(-c4ccc(Cl)cc4)c[nH]n13)CCC2	-3.2	2.8	23.9%	-9.2	4.0	47.1	1.2
O=C(Nc1ccccc1C(=O)O)c1ccc2ccccc2n1	-1.6	3.3	?	0.2	5.6	nt	1.4
CC1(C)Cn2c(nc(=O)c3c2NCN(CCc2ccccc2)C3)S1	-9.0	-4.1	nt	2.8	-9.9	1.0	0.4
O=C(O)c1cccc(NC2=C(N3CCOCC3)C(=O)c3ccccc3C2=O)c1	-3.8	-1.0	5.4%	-0.5	6.1	-4.6	-2.0

Ordered by SMILES length (ascending): part of the list above
SMILES	Calb FLC	LANA-H2A inh	Vif A3G	RanGTP-Impb inh	Beta2AR agonist	ALR inh	HNF4A DNA FP
Fc1ccccc1N=C1NN=C(c2ccccc2)CS1	0.0	3.6	6.5%	-2.2	2.5	-9.5	-2.0
O=C(Nc1ccccc1C(=O)O)c1ccc2ccccc2n1	-1.6	3.3	?	0.2	5.6	nt	1.4
CCC(=O)NNC(=O)c1c(O)c2ccccc2[nH]c1=O	12.4	4.3	4.5%	-2.3	-0.3	-4.2	3.0
Cc1cccc(C)c1-n1c(C)nn(CCOc2ccccc2)c1=O	-0.9	-2.0	-0.8%	1.7	-0.7	-8.2	2.8
COc1ccc(/C=C/C(=O)c2ccc(OC)cc2OC)c(OC)c1	12.2	1.9	?	4.1	-0.8	4.1	1.2
COc1ccccc1C1(CCNC(C)c2cccs2)CCOC(C(C)C)C1 (centres undefined)	-15.1	-0.5	13.9%	?	-2.8	-3.2	1.9
COc1ccc(C2=NN(C(=O)CCC(=O)O)C(c3ccccc3F)C2)cc1 (centres undefined)	-2.7	-2.6	nt	-1.6	2.8	-5.2	1.0
O=C(O)c1cccc(NC2=C(N3CCOCC3)C(=O)c3ccccc3C2=O)c1	-3.8	-1.0	5.4%	-0.5	6.1	-4.6	-2.0
Cc1ccc(C)c(Cc2c(C)nc3c(C(=O)NCc4ccc5c(c4)OCO5)cnn3c2C)c1	2.9	-13.4	7.6%	2.8	nt	-0.5	nt
C[C@H](CO)N1C[C@H](C)[C@H](CN(C)S(=O)(=O)c2cn(C)cn2)Oc2ccc(NC(=O)Nc3ccc(C(F)(F)F)cc3)cc2CC1=O	nt	2.7	nt	nt	1.6	10.4	-3.9

The listing continues:
SMILES	Calb FLC	LANA-H2A inh	Vif A3G	RanGTP-Impb inh	Beta2AR agonist	ALR inh	HNF4A DNA FP
CCCc1c(C(=O)NNc2ccccc2OC)cnn1-c1ccccc1	-4.6	17.8*	nt	?	-0.1	88.0*	2.7
CCOc1ccc(CO[C@@H]2O[C@H](CO)[C@@H](O)[C@H](O)[C@H]2NC(C)=O)cc1OC	-0.1	4.9	-7.5%	1.8	-8.9	20.3	2.0
Cc1ccc2nc3c(cc(C(=O)NCC4CCCO4)c(=N)n3CC3CCCO3)c(=O)n2c1 (centres undefined)	-3.2	2.8	nt	174.9*	-19.9	-1.0	0.4
COc1cccc(/C=N/NC(=O)c2ccoc2C)c1O	-5.3	-1.1	1.6%	-4.0	1.4	19.6	2.5
COc1ccc(OC)c(S(=O)(=O)Nc2ccc(-c3ccc4nnc(C)n4n3)cc2)c1	4.3	1.8	-1.9%	-2.6	13.2	0.8	0.9
Cc1cc(=O)[nH]c2c(C)c(N)ccc12	-3.0	1.0	23.3%	5.0	2.0	-13.3	1.9
O=C(N/N=C/c1ccc[nH]1)c1sc2ccccc2c1Cl	3.8	0.9	-1.3%	4.4	3.7	1.3	7.2
COc1cc(OC)c(C(=O)NNC(=O)c2ccccc2-n2cccc2)cc1OC	nt	-2.2	nt	nt	3.2	nt	-2.6
COc1ccc(-n2cnc3cc(N)ccc32)cc1	2.6	-2.7	5.2%	3.4	-15.3	98.8*	-1.4
COc1cccc(NC(=O)CSc2nnc(CNC(=O)c3ccccc3F)o2)c1	4.0	-0.1	nt	-1.0	-4.6	-18.0	2.0
COc1ccc([C@@H](C)NC(=O)c2ccc3oc(C(C)C)nc3c2)cc1	-9.6	7.3	nt	-2.5	-5.9	-4.9	-2.2
Cc1ccc(S(=O)(=O)N(C)c2ccccc2C(=O)N2CCCC2)cc1	3.0	0.4	45.4%	5.5	-1.7	1.8	-0.5
Cc1ccccc1NC(=O)Cn1cnc2c(oc3ccccc32)c1=O	0.6	-3.4	2.9%	2.6	-7.2	-8.7	0.1
Cc1ccc(C)c(NC(=O)c2ccc(S(=O)(=O)C(F)F)cc2)c1	-9.8	-1.9	nt	-1.0	-10.3	-5.8	-1.0
C[C@@H]1C=C(C(=O)NCc2nc3ccccc3[nH]2)O[C@H](OCc2ccc(CO)cc2)C1	-3.5	1.7	nt	1.6	-4.5	nt	3.3
O=C(OCc1ccc(F)cc1Cl)c1ccccn1	-13.1	-0.1	10.2%	-5.1	5.0	-1.7	-3.0
CCOc1ccc(C(=O)CCC(=O)N(CC)CC(=O)NCc2cccs2)cc1	4.1	-4.9	2.7%	nt	8.2	10.5	1.5
COCCN1C(=O)C(C(=O)OC)CC2=C1CC(C)(C)CC2=O (centres undefined)	nt	nt	1.0%	nt	0.5	nt	5.4
O=C(COC(=O)CC1CC2CCC1C2)NC(=O)NC1CCCC1 (centres undefined)	50.4	-6.9	-7.9%	1.3	1.4	nt	2.3
O=C(CN1C(=O)/C(=C/c2ccc(F)cc2)SC1=S)N1CCN(CCc2ccccn2)CC1	-0.6	0.6	nt	-0.4	11.5	-5.4	3.2
O=C(N/N=C/C=C/c1cccc([N+](=O)[O-])c1)c1ccncc1	6.9	0.1	nt	-0.8	3.2	5.0	-0.8
COc1cc(C)ccc1OCc1cc(C(=O)NC(C)Cn2cncn2)no1 (centres undefined)	9.7	0.3	nt	-2.2	4.9	-0.1	-4.3
CC(O)[C@H]1CNC(=S)N1CCc1cccc(F)c1 (some centres undefined)	-3.0	-3.3	19.9%	-1.6	1.4	nt	-3.2
CCCCCc1c(C)[nH]c2nc3ccccc3n2c1=O	-5.1	-2.1	-1.0%	2.4	-20.9	-4.3	0.9
Cn1cccc1/C=N\NC(=O)c1cncc(Br)c1	3.4	-0.6	nt	-1.1	6.1	6.5	10.6
Cc1cn(C2CCC(CO)O2)c(=O)[nH]c1=O (centres undefined)	12.7	5.7	-2.8%	0.6	1.9	-5.1	2.7
CC(CCN(C)C)OC(=O)c1ccc(C(C)c2ccccc2)o1 (centres undefined)	5.3	0.2	1.5%	1.1	-0.6	-2.4	-0.8
CCN(C(=O)C1CC1)C1CCS(=O)(=O)C1 (centres undefined)	29.5	1.3	nt	4.5	2.6	-7.6	0.7
COc1ccc(C(=O)C2CCCN(C(=O)c3ccccc3C(C)=O)C2)cc1F (centres undefined)	-20.0	1.9	2.5%	2.6	-3.7	-9.0	9.6
Cc1ccc(N/C(N)=N/c2nc(CSc3nnc(N)s3)cc(=O)[nH]2)cc1	1.6	1.2	2.8%	-2.4	3.5	2.2	1.2
Cc1cc(NC(=O)Nc2ccccc2[N+](=O)[O-])no1	28.6	1.5	8.9%	1.4	-9.0	3.1	5.4
CCN(CC)c1ccc(NC(=O)/C=C\c2ccccc2Cl)cc1	30.9	0.0	20.5%	0.0	11.1	17.9	-2.5
CCN(CC)c1nc2ccccc2[nH]c1=O	-1.0	0.9	-0.6%	4.9	5.9	nt	-1.8
CCCCNCCOCCSc1ccc(Cl)cc1	-22.6	-6.2	-3.6%	4.6	9.2	-4.7	-2.1

Source: PubChem
